High-throughput results: PubChem, several laboratories
WNV protease inh – inhibitors of WNV NS2B-NS3 protease, primary screen, biochemical, fluorogenic substrate; fluorogenic substrate Ex360/Em465; active compounds read low; actives 0.18% (n = 65,000); AID 577, 2007; Genome polyprotein (West Nile virus), P06935; z-score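 (tested at a level between 10 and 100 µM)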;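 active = z-score at -3 or under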;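 note: score is relative to mean and spread of the compound wells of a plate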
Target sequence (P06935 1371-1501 limits assumed): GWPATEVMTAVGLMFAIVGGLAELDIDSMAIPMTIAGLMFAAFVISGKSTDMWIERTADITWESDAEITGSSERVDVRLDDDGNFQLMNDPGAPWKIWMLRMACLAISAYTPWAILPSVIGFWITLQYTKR
Target sequence (P06935 1502-1679 limits assumed): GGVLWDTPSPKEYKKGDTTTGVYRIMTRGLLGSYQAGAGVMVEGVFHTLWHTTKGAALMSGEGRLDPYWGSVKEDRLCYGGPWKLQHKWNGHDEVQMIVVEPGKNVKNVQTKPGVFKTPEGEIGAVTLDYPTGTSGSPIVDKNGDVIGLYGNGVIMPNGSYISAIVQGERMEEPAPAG
Hsc70 ATP site – Hsc70 inhibitors, probe displacement, primary screen, biochemical, fluorescence polarization (AID 568). 83,000 tested, under 10 active. Hsc70 fluorescence polarization, probe displacement; higher % means a stronger effect; strong numbers were not always called active. Heat shock cognate 71 kDa protein (Homo sapiens). one-dose displacement, % at 20 µM; IC50 in µM for titrated hits;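 active = displacement above 50% without optical interference and an IC50 on retest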;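 note: ATPase domain with a fluorescein-tagged ATP probe; 0% = vehicle and 100% = excess ADP; read after one hour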
MT1-MMP promoter – inhibitors of MT1-MMP promoter transcription, cell-based, luciferase reporter, luminescence (AID 618); MT1-MMP promoter luciferase reporter cells, luminescence; calls from a first round at 10 µM; hits with a dose series show EC50 in µM; actives 0.62% (n = 87,000);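 active = over half of the reporter light lost at 10 µM or EC50 under 50 µM; inactive = the rest and hits that failed the dose series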;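 note: actives suppress MT1-MMP promoter-driven transcription so potencies describe inhibitors; HT1080 fibrosarcoma cells; overnight exposure; toxic or luciferase-blocking compounds were not removed from the actives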
Numbers without * were called inactive. An excerpt. The share of hits here may be higher or lower than overall.

C(=N\N1CCN(Cc2cccc3ccccc23)CC1)/c1ccco1 was read as Hsc70 ATP site 0.3% and MT1-MMP promoter inactive.
`Clc1ccc(Nc2nc(-c3cccnc3)cs2)cc1` gave Hsc70 ATP site -3.5% and MT1-MMP promoter inactive.
Screening O=C(NCC1CCCO1)C(C(=O)c1ccccc1)n1ccccc1=O (stereo not given) returned WNV protease inh -0.66, Hsc70 ATP site 4.2% and MT1-MMP promoter inactive.
Screening COc1ccc(OC)c(C(c2nnnn2CCc2ccccc2)N2CCC(C(N)=O)CC2)c1 (stereo not given) returned WNV protease inh 0.3, Hsc70 ATP site 3.3% and MT1-MMP promoter inactive.
For CCS(=O)(=O)N1CCCC(C(=O)NC2CCCCC2C)C1 (stereo not given) the results were WNV protease inh -1.21, Hsc70 ATP site -0.7% and MT1-MMP promoter inactive.
Screening COc1ccc(OC)c(NC2c3ccccc3C(=O)N2c2cccnc2)c1 (stereo not given) returned WNV protease inh -0.49, Hsc70 ATP site 3.5% and MT1-MMP promoter inactive.
COc1cc(CN2CCC(C(=O)NC3CCCC3)CC2)ccc1O was read as WNV protease inh -0.44, Hsc70 ATP site 5.9% and MT1-MMP promoter inactive.
`Cc1ccc(S(=O)(=O)N(C)CCCC(=O)N2CCOCC2)cc1` gave WNV protease inh -0.1, Hsc70 ATP site 5.0% and MT1-MMP promoter inactive.
Screening CCOc1ccc(NC(=O)CSc2nnc(C(C)C)n2CC)cc1 returned Hsc70 ATP site 3.0% and MT1-MMP promoter inactive.
`OC1CNCc2cc3c(cc21)OCCO3` (stereo not given) gave WNV protease inh 0.07, Hsc70 ATP site 3.5% and MT1-MMP promoter inactive.
COc1ccc(CCNC(=O)c2cc(-c3ccccc3O)n[nH]2)cc1OC was read as WNV protease inh -0.44, Hsc70 ATP site 2.0% and MT1-MMP promoter inactive.
CC(C)(C)c1ccc(NC(=O)COc2ccc(-n3ccnc3)cc2)cc1 was read as Hsc70 ATP site -0.2% and MT1-MMP promoter inactive.
For CCOC(=O)Cc1[nH]nc2c1C(c1cccc(OC)c1OC)C(C#N)=C(N)O2 (stereo not given) the results were WNV protease inh -0.37, Hsc70 ATP site 3.1% and MT1-MMP promoter inactive.
CN(C)c1ccc(-c2noc(C3CCN(S(=O)(=O)c4ccc(C(=O)O)cc4)CC3)n2)cc1 was read as WNV protease inh -0.35, Hsc70 ATP site 5.8% and MT1-MMP promoter inactive.
For CCC(C)(C(=O)NC1CCCCC1)N(Cc1cccs1)C(=O)Cc1cccs1 (stereo not given) the results were Hsc70 ATP site -0.4% and MT1-MMP promoter inactive.

Sorted by heavy-atom count (high to low): 3 of the compounds above
CC(C)(C)c1ccc(NC(=O)COc2ccc(-n3ccnc3)cc2)cc1 was read as Hsc70 ATP site -0.2% and MT1-MMP promoter inactive.
Screening CCOc1ccc(NC(=O)CSc2nnc(C(C)C)n2CC)cc1 returned Hsc70 ATP site 3.0% and MT1-MMP promoter inactive.
`Clc1ccc(Nc2nc(-c3cccnc3)cs2)cc1` gave Hsc70 ATP site -3.5% and MT1-MMP promoter inactive.

New compounds follow
`COC(=O)c1cc(=O)n2c(-c3ccccc3)csc2n1` gave WNV protease inh 1.69, Hsc70 ATP site 0.2% and MT1-MMP promoter inactive.
`CCOC(=O)CSc1nnc(-c2ccccc2)o1` gave Hsc70 ATP site -4.6% and MT1-MMP promoter inactive.
`CC(C(=O)O)n1nc2ccccc2n1` (stereo not given) gave WNV protease inh -0.83, Hsc70 ATP site 0.6% and MT1-MMP promoter inactive.
`CN(C(=O)C1CCN(S(=O)(=O)c2cccs2)CC1)C1CCCCC1` gave WNV protease inh -0.04, Hsc70 ATP site -2.7% and MT1-MMP promoter inactive.
CN1CCN(C(=O)c2cc3sccc3n2CC(=O)c2ccccc2)CC1 was read as WNV protease inh -0.37, Hsc70 ATP site -4.4% and MT1-MMP promoter inactive.
Screening CC(C)Cc1[nH]c(=O)c(C#N)c2c1COC(C)(C)C2 returned WNV protease inh -1.11, Hsc70 ATP site 3.0% and MT1-MMP promoter inactive.
CCN(C(C)=O)c1nnc(CSc2nc3ccccc3s2)s1 was read as WNV protease inh -0.27, Hsc70 ATP site -1.5% and MT1-MMP promoter inactive.
Screening Fc1ccc(C(c2nnnn2Cc2cccs2)N2CCN(C3CCCC3)CC2)cc1 (stereo not given) returned WNV protease inh -0.92, Hsc70 ATP site 3.8% and MT1-MMP promoter inactive.
Screening Cc1cc(C(=O)N2CCN(C(c3ccccc3)c3ccccc3)CC2)no1 returned WNV protease inh 0.53, Hsc70 ATP site -0.4% and MT1-MMP promoter inactive.
`CC(=O)N(Cc1cc(=O)[nH]c2ccccc12)c1cccc(C)c1` gave WNV protease inh -0.17, Hsc70 ATP site 1.9% and MT1-MMP promoter inactive.
For CC(=O)c1c(C)[nH]c(C(=O)NCc2ccccc2Cl)c1C the results were WNV protease inh -2.34, Hsc70 ATP site 49.5% and MT1-MMP promoter inactive.
CCC(C)NC(=O)CS(=O)Cc1nc(-c2cccc(OC)c2)oc1C (stereo not given) was read as WNV protease inh -0.44, Hsc70 ATP site -1.9% and MT1-MMP promoter inactive.
`COc1cc(NC(=O)C2CCCN(c3ncccn3)C2)cc(OC)c1` (stereo not given) gave Hsc70 ATP site 0.8% and MT1-MMP promoter inactive.
For Cc1c(NC(=O)Cn2nc(C(F)(F)F)c3c2CCCC3)c(=O)n(-c2ccccc2)n1C the results were WNV protease inh -0.6, Hsc70 ATP site 7.0% and MT1-MMP promoter inactive.
`O=C(NC1CC1)c1cc2c(s1)-c1ccccc1OC2` gave WNV protease inh 9.11, Hsc70 ATP site 0.2% and MT1-MMP promoter inactive.
Screening O=C(Nc1nccs1)C1C2CC3OC(=O)C1C3C2 (stereo not given) returned WNV protease inh -0.59, Hsc70 ATP site -1.9% and MT1-MMP promoter inactive.
COc1cccc(C2=NOC(C(=O)NCCN3CCOCC3)C2)c1 (stereo not given) was read as WNV protease inh -0.37, Hsc70 ATP site 1.6% and MT1-MMP promoter inactive.
Screening O=C(OCC(=O)c1ccco1)c1ccc2ncsc2c1 returned WNV protease inh -0.82, Hsc70 ATP site 5.5% and MT1-MMP promoter inactive.
`CC(C)(C)Nc1nc(NCc2cccnc2)nc(N2CCOCC2)n1` gave Hsc70 ATP site -1.2% and MT1-MMP promoter inactive.
For Cc1cccc(-c2nnc(NC(=O)c3ccc(Cl)cc3)o2)c1 the results were WNV protease inh -0.48, Hsc70 ATP site -1.6% and MT1-MMP promoter inactive.
For CCOC(=O)C1CCN(C(=O)c2ccc(N(C)S(C)(=O)=O)cc2)CC1 the results were Hsc70 ATP site 1.7% and MT1-MMP promoter inactive.
Screening COc1cc(CN(C(=O)c2ccco2)c2ccc(C)cc2)ccc1O returned WNV protease inh -1.01, Hsc70 ATP site 6.9% and MT1-MMP promoter inactive.
For O=Cc1c(Sc2ccccn2)nc2ccccn2c1=O the results were Hsc70 ATP site 3.2% and MT1-MMP promoter inactive.
`CC(C)c1c(O)nc(SCCC(=O)O)[nH]c1=O` gave WNV protease inh -1.06, Hsc70 ATP site 1.7% and MT1-MMP promoter inactive.
For CCCCCn1c(SCC#N)nc2cc(C(=O)NCC3CCCO3)ccc2c1=O (stereo not given) the results were WNV protease inh -0.26, Hsc70 ATP site -3.3% and MT1-MMP promoter inactive.
`O=c1oc2c(CN3CCOCC3)c(O)ccc2c2c1CCCC2` gave WNV protease inh 3.69, Hsc70 ATP site -0.1% and MT1-MMP promoter inactive.
Cc1ccccc1NC1=NS(=O)(=O)c2ccccc21 was read as Hsc70 ATP site 0.0% and MT1-MMP promoter inactive.
Screening CCN(CC)C(=O)CSc1nnc(-c2ccncc2)n1N returned Hsc70 ATP site -0.3% and MT1-MMP promoter inactive.
`CC1CN(C)C(c2ccccc2)C(C)C12NC(=O)NC2=O` (stereo not given) gave Hsc70 ATP site 4.4% and MT1-MMP promoter inactive.
COc1cc(CNC2CCC(C)C2)cc(OC)c1 (stereo not given) was read as WNV protease inh -0.91, Hsc70 ATP site 4.0% and MT1-MMP promoter inactive.
CC1(C)Cc2c(c(N3CCOCC3)nc3snc(Br)c23)CO1 was read as WNV protease inh -0.15, Hsc70 ATP site -11.8% and MT1-MMP promoter inactive.
For O=C(Cc1cccs1)Nc1ccccn1 the results were WNV protease inh -1.18, Hsc70 ATP site -16.3% and MT1-MMP promoter inactive.
`Cc1nnc(SCC(=O)NC2CCCC2)s1` gave Hsc70 ATP site 0.3% and MT1-MMP promoter inactive.
For O=C(O)C1C2CCC(C2)C1C(=O)Nc1nc2ccccc2s1 (stereo not given) the results were WNV protease inh 1.51, Hsc70 ATP site -1.1% and MT1-MMP promoter inactive.
Screening Cc1ccc(-n2c(SCC(N)=O)nnc2-c2cccnc2)c(C)c1 returned WNV protease inh -0.65, Hsc70 ATP site 4.8% and MT1-MMP promoter inactive.
`COc1cccc(-n2c(Cc3cc(=O)[nH]c(=O)[nH]3)nnc2SCC(=O)N2CCCCC2)c1` gave WNV protease inh -1.05, Hsc70 ATP site 4.5% and MT1-MMP promoter inactive.
Screening O=S(=O)(c1ccccc1)c1nc(-c2ccco2)oc1NCc1cccnc1 returned WNV protease inh -0.28, Hsc70 ATP site -1.1% and MT1-MMP promoter inactive.
`O=c1ccc(Oc2nc(N3CCOCC3)nc(N3CCOCC3)n2)nn1-c1ccccc1` gave Hsc70 ATP site 0.7% and MT1-MMP promoter inactive.
For O=C1CC2CS(=O)(=O)CC2N1c1ccc(Oc2ccccc2)cc1 (stereo not given) the results were WNV protease inh -0.68, Hsc70 ATP site -6.9% and MT1-MMP promoter inactive.
CCOC(=O)C1=C(C)N=C2SC(C)C(=O)N2C1c1ccc(OCC)c(OCC)c1 (stereo not given) was read as WNV protease inh -0.21, Hsc70 ATP site 2.2% and MT1-MMP promoter inactive.
Screening Cc1cc(C)n(C(=O)COc2ccc(Cl)cc2Cl)n1 returned Hsc70 ATP site -2.5% and MT1-MMP promoter inactive.
CCOc1ccc(C(=O)C2CCN(C(=O)c3ccccc3C(=O)O)CC2)cc1 was read as WNV protease inh -1.13, Hsc70 ATP site 6.0% and MT1-MMP promoter inactive.
For CCN1CCN(S(=O)(=O)c2ccc(S(=O)(=O)NCC3CCCO3)cc2)CC1 (stereo not given) the results were WNV protease inh -1.29, Hsc70 ATP site 5.3% and MT1-MMP promoter inactive.
Screening Cc1ccc(NC(=O)C2CC(=O)NC(Nc3cccc(C)c3)=N2)cc1 (stereo not given) returned WNV protease inh 2.67, Hsc70 ATP site 9.7% and MT1-MMP promoter inactive.
COc1ccc2[nH]c(=O)c(CN(Cc3nnnn3Cc3ccc(F)cc3)CC3CCCO3)cc2c1 (stereo not given) was read as WNV protease inh 1.99, Hsc70 ATP site -0.4% and MT1-MMP promoter inactive.
`CCOc1ccc(-c2nnc(-c3ccncc3)o2)cc1` gave WNV protease inh -1, Hsc70 ATP site -3.1% and MT1-MMP promoter inactive.
Screening O=C(O)C1C2C=CC(C2)C1C(=O)NCCc1cccc(Cl)c1 (stereo not given) returned WNV protease inh 0.52, Hsc70 ATP site -2.7% and MT1-MMP promoter inactive.
`CC(C)(C)OC(=O)N1CCC(c2c(C(=O)O)cnn2-c2ccc(Cl)cc2)CC1` gave WNV protease inh -1.13, Hsc70 ATP site 2.3% and MT1-MMP promoter inactive.
`CCCSc1nnc(-c2ccccc2N)c(=O)[nH]1` gave WNV protease inh 0.82, Hsc70 ATP site -6.6% and MT1-MMP promoter inactive.
Cc1ccc(C)c(N(CC(=O)NCc2ccco2)C(=O)CCC(=O)Nc2ccccn2)c1 was read as WNV protease inh 0.5, Hsc70 ATP site 4.4% and MT1-MMP promoter inactive.
Screening O=C(Nc1ccc(Cl)c(C(F)(F)F)c1)c1ccco1 returned WNV protease inh 1.34, Hsc70 ATP site -4.3% and MT1-MMP promoter inactive.
For COCc1nnc(N)s1 the results were WNV protease inh 0.51, Hsc70 ATP site 1.0% and MT1-MMP promoter inactive.
For O=C1CC(/C=C/c2ccco2)=Nc2ccccc2N1 the results were WNV protease inh 0.32, Hsc70 ATP site 27.1% and MT1-MMP promoter inactive.
`COCCCNC(=O)C1CC(=O)N(CCc2ccc(OC)c(OC)c2)C1` (stereo not given) gave WNV protease inh 1.81, Hsc70 ATP site 4.9% and MT1-MMP promoter inactive.
O=C(NCCc1nc2ccccc2[nH]1)c1ccco1 was read as WNV protease inh -0.07, Hsc70 ATP site 4.4% and MT1-MMP promoter inactive.

Compounds from the list above that have a Cl atom, in the order listed:
`Clc1ccc(Nc2nc(-c3cccnc3)cs2)cc1` gave Hsc70 ATP site -3.5% and MT1-MMP promoter inactive.
For CC(=O)c1c(C)[nH]c(C(=O)NCc2ccccc2Cl)c1C the results were WNV protease inh -2.34, Hsc70 ATP site 49.5% and MT1-MMP promoter inactive.
For Cc1cccc(-c2nnc(NC(=O)c3ccc(Cl)cc3)o2)c1 the results were WNV protease inh -0.48, Hsc70 ATP site -1.6% and MT1-MMP promoter inactive.
Screening Cc1cc(C)n(C(=O)COc2ccc(Cl)cc2Cl)n1 returned Hsc70 ATP site -2.5% and MT1-MMP promoter inactive.
Screening O=C(O)C1C2C=CC(C2)C1C(=O)NCCc1cccc(Cl)c1 (stereo not given) returned WNV protease inh 0.52, Hsc70 ATP site -2.7% and MT1-MMP promoter inactive.
`CC(C)(C)OC(=O)N1CCC(c2c(C(=O)O)cnn2-c2ccc(Cl)cc2)CC1` gave WNV protease inh -1.13, Hsc70 ATP site 2.3% and MT1-MMP promoter inactive.
Screening O=C(Nc1ccc(Cl)c(C(F)(F)F)c1)c1ccco1 returned WNV protease inh 1.34, Hsc70 ATP site -4.3% and MT1-MMP promoter inactive.
